# ALDH1A1 block: ALDH1A1 (human) enzyme inhibition; Purified ALDH1A1, NADH fluorescence, propionaldehyde substrate; Potency, µM (series often up to 75.3 µM), inactives show at the highest dose activity, negative = inhibition, actives largely listed as inhibitors; actives 7.3% (n = 220,000); active = well fitted inhibition curve with a large enough effect, not every such curve was filed as active; inconclusive = small, poorly fitted or top-dose-only effect, or another doubt; inactive = no such curve, though single readings can be large or run the other way;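 note: plate controls were no enzyme wells and a reference inhibitor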
# SMN2 splice enh: increases expression of the SMN2 splice variant; HEK293 SMN2-luciferase splicing reporter, luminescence, 30-36 h; Potency, µM (titrated, usually from 46.1 µM), for the others: top-dose activity change, positive = activation, actives largely listed as activators; actives 2.8% (n = 210,000); note: % of control where 0% means no effect; nearly all actives have a fitted effect of over 55% in size
#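 qHTS luciferase splicing reporter: luminescence rises when SMN2 exon 7 is included in transfected HEK293 cells. Compound exposure lasted 30-36 h at 37C, with 4.5 mM final sodium butyrate as control, followed by a ONE-Glo read.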
# TR SRC2 fluor cs: alters Texas Red total fluorescence, flagging assay interference. actives 0.29% (n = 280,000). TRb/SRC2 Texas Red total fluorescence interference. Potency, µM (doses to about 106 µM), for inactives: at the highest dose fluorescence change, negative = quenching; active = well fitted curve in either direction with a large enough effect; inconclusive = small, poorly fitted or top-dose-only effect; note: % is set by controls: 0 for no effect and ±100 for the full control effect
#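 Human TRβ ligand-binding domain (0.6 uM) and Texas Red SRC2 peptide (20 nM) in Tris buffer with 1 uM T3 and 5% DMSO were incubated with pinned compound for 5 hr at ambient temperature. Total fluorescence was computed as S + 2P (555/632 nm).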
# RECQ1 helicase: inhibitors of human RECQ1 DNA helicase; RECQ1 DNA unwinding, red fluorescence kinetic read; Potency, µM (titrated, usually from 57.3 µM), inactives show at the highest dose activity, negative = inhibition, hits mostly inhibitors; actives 0.54% (n = 240,000); AID 2549;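 note: plate controls were vehicle for no effect and no enzyme for full effect; nearly all actives have a fitted effect of over 30% in size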
#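 50 nM RECQ1T1 preincubated 15 min with compound in Tris pH 8.0 buffer with MgCl2, DTT, Tween-20 and 2.5 ug/ml poly(dI-dC); started with 200 nM TAMRA/BHQ-2 forked duplex and 2 mM ATP. Unwinding read as fluorescence (525/598 nm), two reads 2 h apart.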
# LMNA splice mod: changes lamin A minigene splicing in HeLa cells | Potency, µM (series often up to 46.1 µM), inactives show at the highest dose ratio change, negative = inhibition, usual class: inhibitors | AID 1487 | HeLa LMNA splicing GFP/RFP minigene ratio, 48 h | actives 0.01% (n = 200,000); active = well fitted inhibition curve with a large enough effect in the signal ratio, with a control signal flat, not every such curve was filed as active; inconclusive = small, poorly fitted or top-dose-only effect, or effect the other way, or a change in a side signal; the % refers to the signal ratio; note: % is set by controls: 0 for no effect and ±100 for the full control effect
#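 S3 HeLa stable clones carrying a lamin A-EGFP splicing minigene plus DsRed2 were seeded at 600 cells/well in Opti-MEM with 2% FBS, pin-dosed and incubated 48 h at 37°C. Acumen cytometry (488 nm) gave the GFP/RFP total-intensity ratio.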
# TRb-SRC2 inh: TRbeta-SRC2 interaction inhibition | P10828 | TRbeta-SRC2 peptide binding, fluorescence polarization; receptor liganded with 1 µM T3 | Potency, µM (doses to about 106 µM), for the others: top-dose activity change, negative = inhibition, most hits filed as inhibitors | actives 0.065% (n = 280,000) | AID 1469;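 note: plate controls were bound peptide for no effect and peptide without receptor for full effect; nearly all actives have a fitted effect of over 50% in size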
# Target sequence (P10828 whole entry, looked up): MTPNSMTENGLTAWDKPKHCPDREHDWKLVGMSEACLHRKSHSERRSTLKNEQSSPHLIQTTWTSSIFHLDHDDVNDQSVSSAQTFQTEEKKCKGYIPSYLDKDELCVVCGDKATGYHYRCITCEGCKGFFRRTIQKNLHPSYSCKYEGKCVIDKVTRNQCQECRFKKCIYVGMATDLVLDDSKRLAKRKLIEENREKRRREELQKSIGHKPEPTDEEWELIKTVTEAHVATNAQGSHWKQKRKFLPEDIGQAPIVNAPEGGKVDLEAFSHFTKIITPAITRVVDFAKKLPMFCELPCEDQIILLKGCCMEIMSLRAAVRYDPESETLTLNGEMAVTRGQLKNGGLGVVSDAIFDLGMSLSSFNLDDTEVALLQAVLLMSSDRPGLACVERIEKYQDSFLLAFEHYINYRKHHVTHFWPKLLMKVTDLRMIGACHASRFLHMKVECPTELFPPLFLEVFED
#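 Human TRb LBD (0.6 uM) plus Texas Red-labeled SRC2 peptide (20 nM), 1uM T3, 5% DMSO, 5 hr at ambient temperature. Decreased polarization (555/632 nm) flags inhibition; data normalized to free and bound peptide controls.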
# The depositor's hits bear a star; i = inactive; ? = inconclusive; nt = not tested or not shown; & = joins results of further samples; [ ] = remark or other dose. Unless noted, calls come from the whole dose curve; as a rule, active = well fitted curve in the direction sought with a large enough effect; inconclusive = small, poorly fitted or top-dose-only effect, or another doubt; inactive = no such curve, though single readings can be large; an effect the other way counts as inactive or inconclusive. Potency is the fitted concentration of half-maximal effect.
1) CC1CCN(CCCNC(=O)CCCNC(=O)Cn2cnc3sc4c(c3c2=O)CCCC4)CC1
2) CCN1CCN(c2cc(-c3ccccc3)nc3cc(-c4cccc(F)c4)nn23)CC1
3) CCn1c(COc2ccc(C)cc2)nnc1SCC(=O)Nc1ccc(S(N)(=O)=O)cc1
4) Cc1ccc2nc(NCc3ccc(F)cc3)c3nncn3c2c1
5) C=CCSc1n[nH]c(-c2cccs2)n1
screen / no.	1	2	3	4	5
ALDH1A1 block	5%	?	22µM*	nt	-3%
SMN2 splice enh	0%	-64%[inhibitor]	-5%	-6%	nt
TR SRC2 fluor cs	0%	-1%	-3%	1%&0%	-1%
RECQ1 helicase	-9%	0%	i	-2%	4%
LMNA splice mod	-1%	?	9%	nt	nt
TRb-SRC2 inh	6%	-20%	4%	4%&5%	-1%

6) Cc1cc(N/N=C\c2ccc(Br)cc2)nc(-n2nc(C)cc2C)n1
7) c1ccc(-c2cnc(-c3cccnc3)o2)cc1
8) COc1ccc(S(=O)(=O)N(CCCN2CCOCC2)Cc2cccc3ccccc23)cc1
9) NC(=O)C(c1ccc(Sc2ccccc2)nn1)c1ccc(Cl)cc1Cl (stereo unspecified)
10) O=C(N/C=N/OCc1cccc(C(F)(F)F)c1)N1OC[C@@H]2COc3ccc4ccccc4c3[C@@H]21
screen / no.	6	7	8	9	10
ALDH1A1 block	nt	?	6.3µM*	3%	-13%
SMN2 splice enh	nt	6%	3%	3%	-15%
TR SRC2 fluor cs	-3%	1%	-2%	2%	-7%
RECQ1 helicase	-2%	-3%	i	-21%	i
LMNA splice mod	nt	-3%	21%	-10%	?
TRb-SRC2 inh	4%	-3%	5%	0%	2%

11) COc1ccc(OC)c(CN(CCCN2CCOCC2)S(=O)(=O)c2ccc(NC(C)=O)cc2)c1
12) Cc1nn(-c2ccccc2)c2[nH]c(=O)c(CNCC3CCCO3)cc12 (stereo unspecified)
13) COc1ccc(NC(=O)c2sc3nc(-c4cccnc4)ccc3c2N)cc1
14) O=c1cc(O)nc(SCc2ccccc2Cl)[nH]1
15) O=[N+]([O-])c1cc(-c2n[nH]c(-c3ccccc3)n2)cc([N+](=O)[O-])c1
screen / no.	11	12	13	14	15
ALDH1A1 block	-2%	0%	nt	1%	2%
SMN2 splice enh	5%	12%	nt	8%	-16%
TR SRC2 fluor cs	-1%	-3%	-5%	-1%	-1%
RECQ1 helicase	4%	-6%	-11%	-23%	-11%
LMNA splice mod	3%	4%	nt	-11%	?
TRb-SRC2 inh	-4%	-3%	2%	-3%	14%

16) O=C1Nc2c(c(=O)[nH]c(=O)n2-c2ccccc2)C(C(F)(F)F)(C(F)(F)F)N1
17) COc1ccc(C2CC(=O)NC3=C2C(=O)CCC3)cc1Cl (stereo unspecified)
18) COc1ccc(C(=O)O/N=C(/C)c2cccs2)cc1
19) Cc1cccc(C(=O)N2CCC(=O)N([C@H](COCc3ccc(Cl)cc3)Cc3ccccc3)CC2)c1
20) Cc1c(C(=O)Nc2ccc3c(c2)OCO3)sc2ncn(CC(=O)N3CC(C)CC(C)C3)c(=O)c12 (stereo unspecified)
screen / no.	16	17	18	19	20
ALDH1A1 block	7%	?	-2%	?	5%
SMN2 splice enh	56%	-14%	-3%	nt	5%
TR SRC2 fluor cs	0%	-3%	-2%	-3%	-3%
RECQ1 helicase	-2%	-6%	-14%	-17%	i
LMNA splice mod	2%	1%	6%	nt	-2%
TRb-SRC2 inh	5%	-3%	-8%	11%	9%

21) O=C(Nc1ccc2oc(=O)ccc2c1)c1ccc(-c2ccccc2[N+](=O)[O-])o1
22) COc1cc2c(cc1OC)CN(C(=O)c1sccc1C)CC2
23) Cc1c(/C=N/NC(=O)c2ccc(O)cc2)c2ccccn2c1C(=O)c1ccc(F)cc1
24) Nc1ccc(C(=O)OC2CCOC2=O)cc1[N+](=O)[O-] (stereo unspecified)
25) CC(=O)C1=C(O)C(=O)N(CCC(=O)O)C1c1ccc(Cl)cc1Cl (stereo unspecified)
screen / no.	21	22	23	24	25
ALDH1A1 block	nt	nt	0%	8%	-6%
SMN2 splice enh	nt	nt	-35%[inhibitor]	6%	-7%
TR SRC2 fluor cs	-3%	1%	-1%	0%	-2%
RECQ1 helicase	-3%	-9%	-3%	0%	8%
LMNA splice mod	nt	nt	?	3%	11%
TRb-SRC2 inh	0%	1%	6%	-2%	-13%

26) COc1cccc(/C=C/C(=O)OCC(=O)c2ccc3c(c2)NC(=O)CO3)c1OC
27) CCOC(=O)CNC(=O)CSc1nnc(COc2ccc(Cl)cc2)n1CC
28) CC1=C(C(=O)Nc2ccccc2)C(c2cccnc2)n2ncnc2N1 (stereo unspecified)
29) CN(C)/C=C(\C#N)C(=O)N/N=C(\CC(=O)C(F)(F)F)c1ccco1
30) O=S(=O)(Cc1cccc(C(F)(F)F)c1)c1ncn[nH]1
screen / no.	26	27	28	29	30
ALDH1A1 block	?	1%	-2%	-9%	16%
SMN2 splice enh	-26%	-1%	nt	-5%	6%
TR SRC2 fluor cs	-3%	0%	0%	-4%	-3%
RECQ1 helicase	16%	8%	i	2%	i
LMNA splice mod	nt	1%	13%[46 µM]	nt	nt
TRb-SRC2 inh	-1%	-5%	7%	-3%	-4%

31) O=C(O)/C=C/C(=O)Nc1ccc(N2CCOCC2)nc1N1CCOCC1
32) Cc1c(C=O)c2ccccn2c1C(=O)c1ccc(Cl)c([N+](=O)[O-])c1
33) CC(C)NC(=O)CNc1ccc(C(F)(F)F)cc1[N+](=O)[O-]
34) O=C(O)c1cccc(S(=O)(=O)N2CCSCC2)c1
35) COc1ccc(-c2cc3ccccc3oc2=O)cc1NC(=O)c1cccnc1
screen / no.	31	32	33	34	35
ALDH1A1 block	nt	2.8µM*	3%	8%	?
SMN2 splice enh	nt	-11%	5%	0%	-5%
TR SRC2 fluor cs	5%	-7%	3%	-1%	-6%
RECQ1 helicase	-11%	i	i	-5%	-8%
LMNA splice mod	nt	?	nt	-1%	-14%
TRb-SRC2 inh	-3%	-8%	-1%	-12%	3%

36) C=CCSc1nnc2c(n1)[nH]c1c(C)cccc12
37) COC(=O)/C(NC(C)=O)=C(\C)c1ccc(Cl)cc1
38) O=c1c2cc(Cl)ccc2nc(-c2ccc([N+](=O)[O-])cc2)n1O
39) CN1CCN(C(=O)/C=C/c2ccc(Cl)cc2)CC1
40) Brc1ccccc1-c1nnc(SCc2nc3ccccc3s2)o1
screen / no.	36	37	38	39	40
ALDH1A1 block	?	6%	11µM*	-15%	?
SMN2 splice enh	-19%	-10%	-42%[inhibitor]	nt	14µM*
TR SRC2 fluor cs	-6%	-8%	-2%	-3%	-1%
RECQ1 helicase	0%	8%	7%	-1%	-5%
LMNA splice mod	1%	-2%	nt	nt	?
TRb-SRC2 inh	-8%	9%	-2%	-1%	-2%

# Structures from the list above that contain fluorine, in the order listed:
2) CCN1CCN(c2cc(-c3ccccc3)nc3cc(-c4cccc(F)c4)nn23)CC1
4) Cc1ccc2nc(NCc3ccc(F)cc3)c3nncn3c2c1
10) O=C(N/C=N/OCc1cccc(C(F)(F)F)c1)N1OC[C@@H]2COc3ccc4ccccc4c3[C@@H]21
16) O=C1Nc2c(c(=O)[nH]c(=O)n2-c2ccccc2)C(C(F)(F)F)(C(F)(F)F)N1
23) Cc1c(/C=N/NC(=O)c2ccc(O)cc2)c2ccccn2c1C(=O)c1ccc(F)cc1
29) CN(C)/C=C(\C#N)C(=O)N/N=C(\CC(=O)C(F)(F)F)c1ccco1
30) O=S(=O)(Cc1cccc(C(F)(F)F)c1)c1ncn[nH]1
screen / no.	2	4	10	16	23	29	30
ALDH1A1 block	?	nt	-13%	7%	0%	-9%	16%
SMN2 splice enh	-64%[inhibitor]	-6%	-15%	56%	-35%[inhibitor]	-5%	6%
TR SRC2 fluor cs	-1%	1%&0%	-7%	0%	-1%	-4%	-3%
RECQ1 helicase	0%	-2%	i	-2%	-3%	2%	i
LMNA splice mod	?	nt	?	2%	?	nt	nt
TRb-SRC2 inh	-20%	4%&5%	2%	5%	6%	-3%	-4%

33) CC(C)NC(=O)CNc1ccc(C(F)(F)F)cc1[N+](=O)[O-]
screen / no.	33
ALDH1A1 block	3%
SMN2 splice enh	5%
TR SRC2 fluor cs	3%
RECQ1 helicase	i
LMNA splice mod	nt
TRb-SRC2 inh	-1%

# High-throughput results as filed in PubChem BioAssay.

# The list is partial, so the mix of outcomes need not match the whole.
